Vaccinia mCherry = vaccinia inhibition (mCherry reporter) | Vaccinia virus mCherry reporter infection, fluorescence; about a quarter of the inactives have no number | Potency, µM (series often up to 36.5 µM), without a hit: top-dose activity change, negative = inhibition, usual class: inhibitors | 310,000 compounds, 0.63% hits | AID 720579; active = well fitted inhibition curve with a large enough effect; inconclusive = small, poorly fitted or top-dose-only effect; inactive = no such curve, though single readings can be large or run the other way; tested in A549 cells; also: nearly all actives have a fitted effect of over 35% in size; inactives centre near -10
Vaccinia Venus = vaccinia inhibition (Venus reporter). Vaccinia virus Venus reporter expression, fluorescence. Potency, µM (titrated, usually from 36.5 µM), inactives show at the highest dose activity change, negative = inhibition, hits mostly inhibitors. 330,000 compounds, 0.46% hits; active means well fitted inhibition curve with a large enough effect; inconclusive means small, poorly fitted or top-dose-only effect; inactive means no such curve, though single readings can be large or run the other way; tested in A549 cells; also: nearly all actives have a fitted effect of over 30% in size; inactives centre near -10
Starred values were filed as active, the others as inactive; i = inactive; ? = inconclusive; · = no result given; & = joins results of further samples; [ ] = dose if it differs, or a comment. % is scaled to controls: 0 for no effect and ±100 for the full control effect; potency is read from the fitted curve at half-maximal effect.

Molecule | Vaccinia mCherry | Vaccinia Venus
COc1ccc2[nH]c3c(c2c1)CCN1C(=O)C(CC(=O)NCCCn2ccnc2)C[C@H](C(=O)N(C(C)C)C(C)C)[C@@]31C (some centres not stated) | -4% | -23%
COc1cccc(OC)c1OCCCCN1CCC(Cc2ccccc2)CC1 | -12% | -19%
c1coc(-c2ccnc3nc(-n4cccc4)nn23)c1 | 4% | 1%
CCCCNC(=O)CN(c1cccc(Br)c1)S(C)(=O)=O | -22% | -4%
CC1CCCCC12NC(=O)N(CC(=O)NCc1ccccc1Cl)C2=O (configuration not stated) | -16% | -4%
Cc1cc(NC(=O)Nc2csc3c2CCCC3)ccc1Br | -26% | -28%
CSc1ccc(CCNC(=O)CCc2c(C)nc3c(c(C)nn3-c3ccccc3)c2C)cc1 | -6% | -3%
Cn1nc(N)c2c(-c3ccccc3)c(C#N)c(N)nc21 | -23% | -26%
CN1C(=O)c2ccccc2Sc2ccc(NC(=O)COc3ccc(F)cc3)cc21 | -7% | -20%
CC1CCCC(C)N1S(=O)(=O)c1ccc(S(=O)(=O)N2CCOCC2)cc1 (configuration not stated) | 0% | -7%
CCOc1ccccc1NC(=O)C1CCC(CNS(=O)(=O)c2ccc3c(c2)CCCC(=O)N3)CC1 (configuration not stated) | -10% | -4%
Cc1onc(-c2ccccc2)c1C(=O)OCC(=O)Nc1ccccc1Cl | i | -15%
O=C(c1cc(-c2ccc(F)cc2)on1)N1CCN(c2ccc(F)cc2)CC1 | -14% | -10%&-5%
COc1cccc(NC(=O)COC(=O)c2c(F)cccc2Cl)c1 | -22% | -6%
Cc1nc2ccccn2c1P(=O)(N1CCCCC1)N1CCCCC1 | -11% | -13%
Cc1cc(C(=O)COC(=O)c2ccc[nH]c2=O)c(C)n1C | i | -11%
O=C(CSc1nc2cc([N+](=O)[O-])ccc2n1-c1ccc(F)cc1)NC1CCS(=O)(=O)C1 (configuration not stated) | -4% | -6%
COc1cccc(NC(=O)N2CCC(NC(=O)C3CCCCC3)CC2)c1 | -14% | 1%
CCOc1ccccc1N(CC(=O)Nc1ccc(OC)c(Cl)c1)S(=O)(=O)c1ccccc1 | -16% | -6%
COc1ccc(OC)c(C2C(C(=O)O)c3ccccc3C(=O)N2C)c1 (configuration not stated) | -13% | -11%
COc1ccc(C2=C(C(C)=O)Sc3nnc(-c4ccc(C)cc4)n3N2C(C)=O)cc1OC | ? | ?
CCCCOc1ccc(Nc2nc(C)cc(C)c2C#N)cc1 | i | -15%
O=C(O)c1ccc(S(=O)(=O)N2CCC(NC(=O)C3CCCCC3)CC2)cc1 | 7% | -3%
Cc1cccc(C)c1NC(=S)NCCc1ccc(O)c(O)c1 | -6% | -5%
O=C(OCC(=O)N1CCC(Cc2ccccc2)CC1)c1cc(Cl)ccc1O | -14% | -8%
CCOc1cc(S(=O)(=O)n2ccnc2)ccc1Br | i | -9%
Cc1ccc(C)c(N2C(=O)CC(Cc3ccc(Br)cc3)C2=O)c1 (configuration not stated) | i | -15%
CCOc1ccccc1CN1CCNC(=O)C1CC(=O)NCCc1ccccn1 (configuration not stated) | -13% | -8%
O=C(NCCN1CCNCC1)c1ccccn1 | -3% | 7%
OCCNc1nc(N2CCOCC2)nc(N2CCOCC2)n1 | -5% | -15%
COC(=O)c1ccc(C)c(NC(=O)CN(c2ccc3c(c2)OCO3)S(C)(=O)=O)c1 | · | -6%
Cc1ccc(NS(=O)(=O)Cc2ccccc2)cc1Cl | -15% | -19%
O=C(CCc1ccccc1)N1Cc2cc(-c3cccc(F)c3)ccc2-n2nncc2C1 | i | 2%
CCOC(=O)CN1C(=O)N[C@@H](c2cccs2)C(C(=O)OC)=C1C | i | -9%
COCc1c(C(=O)N2CCC(N3CCCCC3)CC2)cnn1-c1ncc(C)c(-c2cccs2)n1 | -11% | 1%
COC(=O)c1c(NC(=O)COc2c(C)ccc(C)c2C)sc2c1CCC(C)C2 (configuration not stated) | -19% | -13%
Cc1cccc(OCC(=O)N(Cc2ccc(C(C)C)cc2)Cc2ccco2)c1C | 6% | 1%
Cc1cc(Br)ccc1NC(=O)CN(C)C(=O)c1ccccc1OCc1c(C)noc1C | i | -18%
CC1=C(C(=O)Nc2ccccc2C)C(c2ccccn2)n2nc(SCc3ccccc3F)nc2N1 (configuration not stated) | -9% | ?
CCN(CC)S(=O)(=O)c1nnc(NC(=O)c2ccco2)s1 | i | -13%

(more compounds)
Values in the order – Vaccinia mCherry	Vaccinia Venus
> Cc1cccc(C)c1NC(=O)c1csc([C@@H]2O[C@H](CO)[C@H](O)[C@H](O)[C@H]2O)n1
  i	2%
> COc1cccc(CNC(=O)CCCN2C(=O)CCn3nc(-c4cccn4C)cc32)c1
  -3%	6%
> Fc1ccc(-c2cc(C(F)(F)C(F)F)[nH]n2)cc1
  -7%	-12%
> CCOC(=O)CC(NC(=O)N1CCC(CN2CCC(C)CC2)CC1)c1ccccc1 (configuration not stated)
  -10%	-13%
> O=C(N/C(=C\c1ccc(Cl)cc1)C(=O)N1CCOCC1)c1ccco1
  -10%	-3%
> N#Cc1nc2ccccc2n1OCc1ccccc1
  i	-18%
> COc1ccc2c(c1)c1c(c(=O)n(-c3cccc(C)c3)c(=O)n1CC(=O)N1CCCC1)n2C
  -6%	-3%
> CC(C)(O)CC[C@@H](O)[C@](C)(O)C1CC[C@@]2(O)C3=CC(=O)[C@@H]4C[C@@H](O)[C@@H](O)C[C@]4(C)C3CC[C@]12C (some centres not stated)
  -2%	19%
> CCS(=O)(=O)NCC(c1cccnc1)N1CCN(c2ccccc2)CC1 (configuration not stated)
  i	-7%
> Cc1ccc(C(=O)NNC(=O)c2cc3ccccc3cc2O)cc1
  -25%	?
> CC(C)n1nc(C(=O)Nc2nnc(C3CC3)s2)c2ccccc2c1=O
  i	-20%
> CCOC(=O)C1=CN(Cc2ccco2)S(=O)(=O)N(C)C1c1ccc2ccccc2c1 (configuration not stated)
  i	?
> COc1ccc(NC(=O)CN2CCN(CC(=O)Nc3ccc(F)cc3F)CC2)cc1
  -8%	-12%
> N#CC(c1ccc(Cl)nn1)c1ccccc1Cl (configuration not stated)
  ·	-10%
> CCOCCCNC(=O)c1cc2c(=O)n3ccccc3nc2s1
  -15%	-21%
> CC(OC(=O)c1ccccc1C(=O)N(C)c1ccccc1)C(=O)Nc1ccc(C(N)=O)cc1 (configuration not stated)
  i	-11%
> S=C(Nc1ccc(Cl)cc1Cl)N1CCCCC1
  -17%	-6%
> O=C(C(Cc1ccccc1)n1cccc1)N1CCN(c2ncccn2)CC1 (configuration not stated)
  i	0%
> COc1ccc(CSc2nc(N3CCOCC3)c3c(c2C#N)CC(C)(C)OC3)cc1
  -21%	-21%
> O=C1C=C(c2ccc(-c3ccccc3)cc2)C[C@@H](c2ccc3c(c2)OCO3)C1
  i	-3%
> CCN(CC)CCOC(=O)c1cccc2c1-c1ccccc1C2O (configuration not stated)
  i	11%
> NC/C=C/C(=O)O
  -2%&-13%	-15%&6%
> Cc1ccc2oc(=O)c3cnn(CC(=O)N4CCCc5ccccc54)c3c2c1
  i	-21%
> O=Cc1cc([N+](=O)[O-])ccc1N1CCN(Cc2ccc3c(c2)OCO3)CC1
  -6%	-13%
> S=c1[nH]nc(CSc2nc3ccccc3s2)o1
  -12%	1%
> CC(=O)c1ccccc1N(C(=O)c1ccco1)C(C(=O)NC1CCCC1)c1ccc(C)cc1 (configuration not stated)
  -21%	1%
> N#CC1=C(N2CCOCC2)/C(=C\c2ccccc2)CC1
  i	-3%
> Cc1cccc(-c2cc3nc4c(c(N5CCC6(CC5)OCCO6)n3n2)CCCC4)c1
  -16%	-3%
> Cc1ccccc1C(=O)Oc1cc(-c2ccc3c(c2)OCO3)cc(=O)c2c(C)oc(C)c12
  3%	60%[activator]
> O=S(=O)(c1ccc(Br)cc1)c1nc(-c2ccco2)oc1SCc1ccccc1Cl
  -16%	-8%
> c1ccc(-c2cc(-c3ccccc3)[n+](-c3ccccc3)c(-c3ccccc3)c2)cc1
  -40%	?
> COc1ccc(NC(=O)N2CCCC2C(=O)NC23CC4CC(CC(C4)C2)C3)cc1 (configuration not stated)
  -3%	-12%
> CC(=O)c1c(O)cc(C(C)C)n(-c2ccccc2)c1=O
  -4%	-16%
> CC(C)c1ccc(NC(=O)NC(C)c2ccc3c(c2)OCO3)cc1 (configuration not stated)
  -3%	-15%
> CC(=O)Nc1nc2ccccc2n1CCOc1ccccc1
  -13%	-9%
> COc1ccc(C(O)c2nc(/C=C/c3ccc(C(F)(F)F)cc3)cs2)cc1 (configuration not stated)
  -16%	-10%
> O=C(NCC(c1ccco1)N1CCN(c2ccccc2F)CC1)c1ccco1 (configuration not stated)
  -16%	-1%
> Cc1cc(Cl)ccc1OCC(=O)NCc1ccncc1
  ?	-10%
> O=C(NCC(c1ccco1)N1CCCCC1)c1ccc(NS(=O)(=O)c2ccc(F)cc2)cc1 (configuration not stated)
  -6%	-11%
> CCOCc1nnc(NC(=O)c2cc(OC)c(OC)c(OC)c2)s1
  -6%	-14%

Full records, quoted from the list.
N#CC1=C(N2CCOCC2)/C(=C\c2ccccc2)CC1 is entered as Vaccinia mCherry: i; Vaccinia Venus: -3%
O=Cc1cc([N+](=O)[O-])ccc1N1CCN(Cc2ccc3c(c2)OCO3)CC1 is entered as Vaccinia mCherry: -6%; Vaccinia Venus: -13%
c1ccc(-c2cc(-c3ccccc3)[n+](-c3ccccc3)c(-c3ccccc3)c2)cc1 is entered as Vaccinia mCherry: -40%; Vaccinia Venus: ?

Following part:
Values in the order – Vaccinia mCherry	Vaccinia Venus
> O=S(OCCN1CCOCC1)C(c1ccccc1)c1ccccc1 (configuration not stated)
  -12%	-11%
> CC(=O)N1c2ccc(S(=O)(=O)N3CCCCCC3)cc2CC1C(=O)NCc1ccc(Cl)cc1 (configuration not stated)
  -19%	-8%
> COc1cccc2c1OCC(C(=O)O)C2 (configuration not stated)
  -5%	-3%
> COc1ccc(S(=O)(=O)N2CC(O)CC2C(=O)OCC(=O)Nc2ccc(Cl)cn2)cc1 (configuration not stated)
  -10%	-9%
> O=C(Nc1ccc(F)c(Cl)c1)c1cncs1
  -3%	-8%
> CC(=O)CN1C(=O)NC(c2ccccc2)(c2ccccc2)C1=O
  -29%	-20%
> C#CCSc1nc(-c2cccs2)ccc1C#N
  ·	-18%
> COc1ccc(-n2c3c(cc(-c4nc(-c5ccc(Cl)cc5)cs4)c2=O)C(=O)CC(C)(C)C3)cc1Cl
  -2%	1%
> S=C(Nc1ccccc1)N1CCCCCCC1
  -10%	-11%
> COc1cc(C2C(C#N)=C(C)NC3=C2C(=O)CC(C)(C)C3)cc(OC)c1O (configuration not stated)
  ·	-15%
> CCN(CC)CCCNC(=O)c1sc2ncn(CC(=O)Nc3ccc(C)c(Cl)c3)c(=O)c2c1C
  9%	-21%
> COc1cc(NC(=O)C(C)Oc2ccccc2)ccc1NC(=O)COc1ccccc1 (configuration not stated)
  ?	?
> Cc1ccc(Cn2cccc(NC(=O)NC3CCCCC3)c2=O)cc1
  i	?
> COc1ccc(C(=O)N(CCCO)C(C)C(=O)NC2CCCCC2)cc1OC (configuration not stated)
  4%	-2%
> CCC(C)(C)n1nnnc1C(c1ccc(C)cc1)N1CCCC1 (configuration not stated)
  -18%	-16%
> CC1=C(c2ccc(C(C)C)cc2)S(=O)(=O)N=C1N1CCN(C(=O)c2ccco2)CC1
  -9%	-8%
> CCOCCCNC(=O)c1cn(CC(C)C)c(=O)c2c1c1ccccc1n2C
  -1%&-9%	-9%&-8%
> Cc1c(C)c2ccc(OC(C)C(=O)NC3CC(C)(C)NC(C)(C)C3)cc2oc1=O (configuration not stated)
  -11%	-14%
> O=C(Nc1ccc2c(c1)OCCO2)NC1CCCCC1
  ·	-14%
> CC(=O)Nc1cccc(N2C(=O)CC(Cc3ccccc3)C2=O)c1 (configuration not stated)
  ·	-13%

Some values from the entries so far:
`N#Cc1nc2ccccc2n1OCc1ccccc1` in Vaccinia Venus reads -18%
`CC(C)n1nc(C(=O)Nc2nnc(C3CC3)s2)c2ccccc2c1=O` in Vaccinia Venus reads -20%

(list continues)
Values in the order – Vaccinia mCherry	Vaccinia Venus
> COc1ccccc1NC(=O)/C(C#N)=C/c1cc([N+](=O)[O-])ccc1N1CCCC1
  i	-11%
> COCOc1cccc(CN2CCC2(C)C(=O)Nc2cc(OC)ccc2OC)c1 (configuration not stated)
  ?	-14%
> CCCCC(=O)NC(=S)Nc1ccccc1C(=O)Nc1ccccc1
  -12%	-8%
> CCSc1nnc(NC(=O)Cn2cnc3c2c(=O)n(C)c(=O)n3C)s1
  -7%	1%
> O=C(CSc1ccccc1)NCc1ccccc1
  -6%	-22%
> Cc1ccccc1N1CC(c2nnc(NC(=O)c3ccco3)s2)CC1=O (configuration not stated)
  -8%	-11%
> CN1CC(=O)N(CCOc2ccccc2)C1=O
  -12%	6%
> CN1C[C@@H]2[C@@H]3C(=O)N(Cc4ccccc4)C(=O)[C@@H]3[C@](C)(C1=O)N2C(=O)c1ccc(Br)cc1
  -18%	-6%
> N#Cc1c(/N=C/c2ccco2)oc(-c2ccccc2)c1-c1ccccc1
  -9%	-20%

Gathered by group: those above with a COOH group.
Values in the order – Vaccinia mCherry	Vaccinia Venus
> COc1ccc(OC)c(C2C(C(=O)O)c3ccccc3C(=O)N2C)c1 (configuration not stated)
  -13%	-11%
> O=C(O)c1ccc(S(=O)(=O)N2CCC(NC(=O)C3CCCCC3)CC2)cc1
  7%	-3%
> NC/C=C/C(=O)O
  -2%&-13%	-15%&6%
> COc1cccc2c1OCC(C(=O)O)C2 (configuration not stated)
  -5%	-3%

Assay outcomes (PubChem)
